Mtb bLac sens: beta-lactam sensitization of Mtb H37Rv; M. tuberculosis H37Rv growth with meropenem, percent inhibition; hits of this screen are not shown here; inhibition, % at 25 µM; 330,000 tested, 0.27% active;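 active means about 74% or more and at least 40 points above the plate without the antibiotic, then above 30% in a dose series; inconclusive means first-round hits that could not be retested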;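 further: growth measured after seven days incubation then overnight dye step; 0% = bacteria only wells and 100% = bacteria with antibiotic; twin plates without the antibiotic show which effects depend on it; some results filed as inactive read as strong as hits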
YopH inh: blocks Yersinia enterocolitica YopH tyrosine phosphatase; fluorescence Ex485/Em525; inhibition, %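 (about 10 µM by stock and volumes)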; 140,000 tested, 0.16% active; AID 898;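 active means inhibition of 50% or more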;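 further: controls were vehicle for no effect and minimum signal wells for full effect; inactives centre near -20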
Arbovirus anti: blocks arbovirus infection | inhibition, % at 10 µM | 200,000 tested, 0.37% active | arbovirus infection cell-based antiviral screen;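 active means inhibition from about 30%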;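 further: bluetongue infection of BSR cells; cell survival read as ATP light after 72 h; 0% = infected wells without compound and 100% = uninfected wells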
Mtb H37Rv: M. tuberculosis H37Rv growth inhibitors, H37Rv strain (AID 1626). M. tuberculosis H37Rv growth inhibition; higher % means a stronger effect. 220,000 tested, 0.95% active. inhibition, % at 10 µM; hits with a dose series show IC50 in µM;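 active means confirmed in a dose series; inconclusive means inhibition above 80% but not taken into the dose series; inactive means below 80% or under 30% at every dose of the series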;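 further: bacteria incubated seven days before Alamar blue readout; 0% = bacteria only wells and 100% = bacteria with antibiotic wells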
RecA intein inh: Mtb RecA intein splicing inhibition; cell-free RecA intein splicing, fluorescence; 290,000 tested, 0.75% active; P9WHJ3; inhibition, %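 (about 9 µM by stock and volumes)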; in the data active means inhibition above about 30%; inconclusive means no clear call, values can overlap the other calls;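 further: 0% = vehicle wells and 100% = reference inhibitor control wells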
Target sequence (P9WHJ3 whole entry, looked up): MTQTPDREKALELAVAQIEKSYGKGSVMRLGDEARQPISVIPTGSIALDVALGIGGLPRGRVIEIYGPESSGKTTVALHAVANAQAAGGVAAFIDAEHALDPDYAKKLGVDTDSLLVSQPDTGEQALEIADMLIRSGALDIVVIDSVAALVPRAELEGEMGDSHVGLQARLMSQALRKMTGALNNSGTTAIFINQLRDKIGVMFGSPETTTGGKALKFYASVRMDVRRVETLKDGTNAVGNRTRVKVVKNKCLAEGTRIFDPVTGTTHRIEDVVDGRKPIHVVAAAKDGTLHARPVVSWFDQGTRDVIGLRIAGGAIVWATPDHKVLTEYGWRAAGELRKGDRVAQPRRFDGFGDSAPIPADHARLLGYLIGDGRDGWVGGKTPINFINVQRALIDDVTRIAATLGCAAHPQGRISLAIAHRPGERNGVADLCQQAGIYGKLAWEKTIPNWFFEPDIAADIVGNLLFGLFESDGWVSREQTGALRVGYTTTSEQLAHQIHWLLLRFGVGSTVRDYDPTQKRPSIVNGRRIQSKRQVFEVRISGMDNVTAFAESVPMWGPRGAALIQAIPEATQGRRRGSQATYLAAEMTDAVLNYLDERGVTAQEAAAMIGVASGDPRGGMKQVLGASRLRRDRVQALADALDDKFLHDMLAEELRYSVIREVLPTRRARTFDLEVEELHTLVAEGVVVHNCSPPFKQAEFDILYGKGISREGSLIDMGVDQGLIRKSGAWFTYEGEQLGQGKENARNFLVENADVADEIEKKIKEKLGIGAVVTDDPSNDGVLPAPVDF
Arbovirus anti repeat: further read-out of Arbovirus anti, marked with its call; inhibition, %; measured here: 10K subset replicate screen; many hits read low in the repeat;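 first of two repeat runs on a subset; 0% = infected and 100% = uninfected wells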
Starred values were filed as active, the others as inactive; ? = inconclusive; . = no result given. The list is partial; the hit share may differ from the screen's.

SMILES	Mtb bLac sens	YopH inh	Arbovirus anti	Mtb H37Rv	RecA intein inh	others
Cc1ccc(NC(=O)C(C)OC(=O)CCN=C2NS(=O)(=O)c3ccccc32)cc1 (centres undefined)	-4	.	.	.	-6.0
CN(C(=O)COC(=O)c1ccc2c(c1)OCO2)c1c(N)n(Cc2ccccc2)c(=O)[nH]c1=O	-6	.	.	.	0.1
COCCOCCn1cnc2ccccc21	1	-16	1	-3%	2.2
Cc1cccc(-n2c(CNC(=O)c3ccccc3)nnc2SCC(=O)Nc2nccs2)c1	-4	-44	4	3%	1.4	Arbovirus anti repeat=-1
Cc1cc(NC(=O)CSc2nc(=O)cc(N)n2-c2ccc(Cl)cc2)no1	6	.	1	2%	-0.2
O=C(CSc1nnc(-c2n[nH]c3ccccc23)n1-c1ccccc1)Nc1ccccc1Cl	11	-21	21	5%	-0.2
CCN(CC)c1ccc(/C=C2\CCC(/C=C(\C#N)C(=O)Nc3ccccc3F)=C2N2CCOCC2)cc1	.	-8	-5	8%	0.7
CCOC(=O)C1=C(C)N=c2s/c(=C\C(=O)OC)c(=O)n2C1c1ccc(OC)cc1 (centres undefined)	28	-42	2	-3%	5.3	Arbovirus anti repeat=1
CCOc1ccc2nc(SCC(=O)NCc3ccc4c(c3)OCO4)[nH]c2c1	-5	-17	3	-6%	0.5
Cc1cc(C(=O)Nc2ccccc2N2CCCCC2)no1	4	.	.	11%	12

In the list so far, three contain an NH in an aromatic ring:
SMILES	Mtb bLac sens	YopH inh	Arbovirus anti	Mtb H37Rv	RecA intein inh	others
CN(C(=O)COC(=O)c1ccc2c(c1)OCO2)c1c(N)n(Cc2ccccc2)c(=O)[nH]c1=O	-6	.	.	.	0.1
O=C(CSc1nnc(-c2n[nH]c3ccccc23)n1-c1ccccc1)Nc1ccccc1Cl	11	-21	21	5%	-0.2
CCOc1ccc2nc(SCC(=O)NCc3ccc4c(c3)OCO4)[nH]c2c1	-5	-17	3	-6%	0.5

The list continues:
SMILES	Mtb bLac sens	YopH inh	Arbovirus anti	Mtb H37Rv	RecA intein inh	others
CCc1cc2c(SCC(=O)O)ncnc2s1	0	-18	-2	-6%	-0.3
C[C@H](NC(=O)OCc1ccccc1)C(=O)N[C@@H](Cc1c[nH]c2ccccc12)C(=O)O	-8	.	.	.	0.8
COc1ccccc1-c1nc(S(=O)(=O)c2ccccc2)c(N2CCCCC2)o1	-5	.	.	.	17
COc1ccc2nc(SCCN(C)C)[nH]c2c1	4	.	13	1%	-0.2
CCc1ccc(C(C(=O)NC2CCCC2)N(C(=O)/C=C/C(=O)Nc2cc(C)on2)c2ccccc2C)cc1 (centres undefined)	-5	-22	4	1%	1.3
CCOC(=O)C1=C(C)OC(N)=C(C#N)C1c1ccc(O)c(OC)c1 (centres undefined)	-6	-4	8	-8%	0.7
N#Cc1ccsc1NC(=O)CN1CCN(c2ccccn2)CC1	-6	8	4	-6%	0.2
COc1ccc2[nH]c(=O)c(CN(C(=O)c3cccnc3)c3ccccc3OC)cc2c1	4	-29	-3	-6%	2.5
CCOC(=O)C1CCN(C(=O)Cc2c(C(=O)O)n(CC)c3ccccc23)CC1	3	-34	-1	-12%	-1.8
NS(=O)(=O)c1ccc(CCNC(=O)CN2CCN(c3cccc(Cl)c3)CC2)cc1	0	10	11	3%	0.1
Cc1ccsc1C(=O)N1CCCC(CCC(=O)NCc2ccccc2F)C1 (centres undefined)	-4	.	1	9%	0.1
CNc1oc(-c2ccccc2)nc1C#N	-11	-22	-4	-9%	-2.6	Arbovirus anti repeat=2
Cc1cccn2cc(-c3c[nH]c4ccccc34)nc12	10	.	13	3%	-1.1
O=C(Cn1cnc2ccccc2c1=O)NCCC(=O)Nc1ccccc1C(F)(F)F	2	.	.	.	3.2
CC(=O)Nc1ccc(S(=O)(=O)N2CCCN(S(=O)(=O)c3ccc(C)cc3)CC2)cc1	-4	-1	-1	0%	2.5
CCOC(=O)Cc1c(C)nc(Cc2ccc(OC(C)C)cc2)[nH]c1=O	-13	.	-4	-8%	-3.6
Cc1cccc(C)c1Nc1nnc(SCC(=O)NCc2cccs2)s1	-6	-23	5	0%	1.6
CCc1cc(=O)oc2cc(C)cc(OC(C)C(=O)O)c12 (centres undefined)	-1	2	3	-2%	-2.2
CCCn1nc(C(=O)OCC(=O)Nc2ncc(Cl)c(C)c2Cl)c2ccccc2c1=O	-2	-39	9	-1%	2.3
CCOc1ccc(NC(=S)N(CCCN2CCOCC2)Cc2cn(C)c3ccccc23)cc1	-2	-21	-7	10%	1.1
Cc1ccc(-c2nc3ccccc3s2)cc1NC(=S)NC(=O)c1cccc2ccccc12	94	-22	-43	62%	0.3
O=C(Nc1ccccc1F)c1ccco1	1	-27	-6	6%	-5.4
COc1cc(C(=O)NCc2ccc3c(c2)OCO3)c([N+](=O)[O-])cc1OC	4	.	.	.	-5.1
CC(C)Cc1nnc(NC(=O)c2cc(-c3ccccc3)nc3ccccc23)s1	2	-48	-3	-4%	1.3
O=C(Cc1c(F)cccc1Cl)NC1CCN(Cc2ccccc2)CC1	-8	.	.	.	2.8
CCn1cc(C=C2C(=O)N(C)C(=O)N(C)C2=O)c2ccccc21	0	.	.	.	-3.3
COc1cnc(N(C)C)nc1Sc1ccc(Cl)cc1	-5	-11	-4	-3%	4.1
Cc1nn(CCCC(=O)NCc2ccco2)c(=O)c2nn(-c3ccccc3)c(C)c12	0	.	.	.	-2.9
COc1ccc(NC(NC(=O)c2cccnc2)C(Cl)(Cl)Cl)cc1 (centres undefined)	-3	.	-18	?	0.0
Cc1c(C#N)c2ccccc2n1CC(=O)NCC1CCCO1 (centres undefined)	0	-26	10	-6%	-5.3
Cc1ccc2c(c1)N(C(=O)CSc1nncn1C)C(C)(C)c1ssc(=S)c1-2	-1	-25	-12	2%	39*
O=C(NC(=S)Nc1ccccc1Cl)c1cncc(Br)c1	-4	.	.	.	-2.2
O=C(COC(=O)COc1ccc2ccccc2c1)NCC(F)(F)F	24	.	2	5%	-7.6
O=C(NCC12CC3CC(C1)CC(CNC(=O)N1CCCC1)(C3)C2)N1CCCC1	-12	-12	3	2%	2.6
CC(=O)NCCc1ccc(S(=O)(=O)NC2OC(=O)c3ccccc32)cc1 (centres undefined)	?	-60	16	-3%	-1.2
Cn1c(CNC(=O)c2ccco2)nnc1SCC(=O)c1ccc(F)cc1	?	.	.	.	0.1
COC(=O)Cn1c(CN2CCOCC2)nc2c1c(=O)n(C)c(=O)n2C	1	.	-6	.	-2.3	Arbovirus anti repeat=0
C/C(=N\NC(N)=O)C1(C)CCCCC1	-6	4	5	-2%	-2.5
O=C(NNC(=O)C(O)(c1ccccc1)c1ccccc1)C1CC1	-8	.	3	-9%	0.5
Cc1ccc(C(=O)O)cc1S(=O)(=O)N1CCC(C(=O)O)CC1	-9	6	5	1%	-0.6

Structural class: the compounds so far with a furan ring, fused or not
SMILES	Mtb bLac sens	YopH inh	Arbovirus anti	Mtb H37Rv	RecA intein inh	others
O=C(Nc1ccccc1F)c1ccco1	1	-27	-6	6%	-5.4
Cc1nn(CCCC(=O)NCc2ccco2)c(=O)c2nn(-c3ccccc3)c(C)c12	0	.	.	.	-2.9
Cn1c(CNC(=O)c2ccco2)nnc1SCC(=O)c1ccc(F)cc1	?	.	.	.	0.1

Carrying on.
SMILES	Mtb bLac sens	YopH inh	Arbovirus anti	Mtb H37Rv	RecA intein inh	others
CCN1CCN(C(=O)CCN2C(=O)c3ccccc3C2=O)CC1	-1	.	-1	-1%	-2.9
CCNc1nc(NC(C)C)nc(N(C)C#N)n1	-2	.	.	-7%	-0.4
COC(=O)c1ccccc1NC(=O)C1CC(=O)N(c2ccc(F)cc2)C1 (centres undefined)	-6	-8	5	-2%	1.2
O=C1C(=O)N(CCCN2CCOCC2)C(c2cccs2)/C1=C(/O)c1ccc2c(c1)OCO2 (centres undefined)	.	-24	10	-2%	-1.9
O=S(=O)(CCSc1nc2ccccc2o1)c1nc2ccccc2s1	96	1	-29	19%	11
Cc1c(NCc2cc(Cl)ccc2O)c(=O)n(-c2ccccc2)n1C	3	2	6	0%	-1.0
CCOc1ccc(-c2nc(C#N)c(NCC3CCCO3)o2)cc1 (centres undefined)	19	-12	2	3%	0.0
COc1ccccc1-c1nc(C#N)c(N2CCC(C(N)=O)CC2)o1	-4	-36	1	-3%	-1.2
Cc1nn(C)cc1C(C)NCc1c(C(=O)N2CCCCCCC2)nc2ccc(Cl)cn12 (centres undefined)	1	.	-3	-8%	0.5
CCC(C(=O)N1CCC(C(N)=O)CC1)n1nc(C)n2c(cc3occc32)c1=O (centres undefined)	-4	.	.	.	0.0

Sorted by formula weight (high to low): some entries from above
SMILES	Mtb bLac sens	YopH inh	Arbovirus anti	Mtb H37Rv	RecA intein inh	others
O=S(=O)(CCSc1nc2ccccc2o1)c1nc2ccccc2s1	96	1	-29	19%	11
Cc1c(NCc2cc(Cl)ccc2O)c(=O)n(-c2ccccc2)n1C	3	2	6	0%	-1.0
COc1ccccc1-c1nc(C#N)c(N2CCC(C(N)=O)CC2)o1	-4	-36	1	-3%	-1.2

(list continues)
SMILES	Mtb bLac sens	YopH inh	Arbovirus anti	Mtb H37Rv	RecA intein inh	others
C/C(=N\NC(=O)CSCc1ccc([N+](=O)[O-])cc1)c1ccccc1	0	.	7	6%	9.3
COc1ccc(CN2CCNC(=O)C2CC(=O)N(C)Cc2nccs2)c(OC)c1 (centres undefined)	6	.	.	.	1.0
Cc1[nH]n(-c2cccc(Cl)c2)c(=O)c1C=NCC(C)C	-7	.	4	14%	1.4
Clc1nc(NCc2ccco2)nc(N2CCCCC2)n1	4	.	7	6%	0.8
O=C(NCCc1ccc(Cl)cc1)/C(=C/c1cccnc1)NC(=O)c1ccccc1	-3	-8	-2	10%	0.4
Cc1ccccc1NCc1ccccc1O	-12	-15	7	2%	-2.3
CN(C(=O)c1ccccc1Cl)c1ccccc1C(=O)NCc1ccccc1	-3	.	.	.	-2.3
CCOC(=O)CC(/C(C)=N\O)c1ccccc1 (centres undefined)	11	-16	8	-2%	-2.6
Cc1ccc(/C=N/n2c(C)nnc2C)cc1	3	-10	13	-2%	-0.2	Arbovirus anti repeat=-4
COc1ccc(NC(=O)CC2CCCC2)cc1S(=O)(=O)N1CCCCC1	-2	-22	10	-7%	0.7
CC(=O)c1c(C)nn(CC(O)COc2ccc3ccccc3c2)c1C (centres undefined)	3	.	3	2%	1.4
COCCn1c(=O)[nH]c2cc(C(=O)Nc3cc(OC)c(OC)c(OC)c3)ccc2c1=O	-8	.	.	.	-0.4
Cc1cccc(N2CCN(C(=O)C3CCN(S(=O)(=O)c4cccc5cccnc45)CC3)CC2C)c1 (centres undefined)	3	-20	-13	.	-0.4	Arbovirus anti repeat=2
O=C(CSc1nnc(-c2cnccn2)n1Cc1ccco1)Nc1ccc(Br)cc1	.	-27	-4	8%	6.0
CCCCn1c(/N=C/c2ccc(N(C)C)cc2)nc2ccccc21	-5	0	6	-14%	-3.3
O=c1c2ccccc2[nH]c(=S)n1Cc1ccc2c(c1)OCO2	3	.	-7	-6%	11

Entries above containing two or more sulfur atoms, in the order listed:
SMILES	Mtb bLac sens	YopH inh	Arbovirus anti	Mtb H37Rv	RecA intein inh	others
Cc1cccc(-n2c(CNC(=O)c3ccccc3)nnc2SCC(=O)Nc2nccs2)c1	-4	-44	4	3%	1.4	Arbovirus anti repeat=-1
CCc1cc2c(SCC(=O)O)ncnc2s1	0	-18	-2	-6%	-0.3
CC(=O)Nc1ccc(S(=O)(=O)N2CCCN(S(=O)(=O)c3ccc(C)cc3)CC2)cc1	-4	-1	-1	0%	2.5
Cc1cccc(C)c1Nc1nnc(SCC(=O)NCc2cccs2)s1	-6	-23	5	0%	1.6
Cc1ccc(-c2nc3ccccc3s2)cc1NC(=S)NC(=O)c1cccc2ccccc12	94	-22	-43	62%	0.3
Cc1ccc2c(c1)N(C(=O)CSc1nncn1C)C(C)(C)c1ssc(=S)c1-2	-1	-25	-12	2%	39*
O=S(=O)(CCSc1nc2ccccc2o1)c1nc2ccccc2s1	96	1	-29	19%	11
